High-throughput results: PubChem BioAssay, ICCB-Longwood Screening Facility, Harvard Medical School
Ba CapD inh: CapD enzyme inhibition. AID 492967. z-score (concentration not given with the values). 0.23% of 140,000 active. purified CapD enzyme, fluorescence intensity read-out; stronger effect = lower value; some hits fall short of the stated cut;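 active means z-score under -4 in either of two replicates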;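 further: stock transfer was 100 nL into about 40 µL; score is relative to mean and spread of the plate; one replicate is shown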
AID504770: E. coli YBA685 growth inhibition, screen for V. cholerae RctB inhibitors | E. coli YBA685 rctB-dependent plasmid, OD600 growth, 3 h; stronger effect = lower value | z-score (no concentration beside the values) | 0.27% of 130,000 active;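 active means z-score under -2 on both plates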;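 further: wells of about 30 µL received 100 nL stock; score is relative to mean and SD of the test wells; the first replicate is given; strong numbers were not always called active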
* = called active by the depositor; i = inactive; nt = not tested or not shown; & = joins results of further samples. An excerpt; count on the stated rates, not on these rows.

SMILES	Ba CapD inh	AID504770
COC(=O)C1Cc2ccccc2CN1C1CC(=O)N(c2cc(C)ccc2C)C1=O (centres undefined)	nt	-0.4
O=C(O)c1ccccc1C(=O)NCC1CCCO1 (centres undefined)	-0.25	-0.55
CN1CCN(c2ccccc2NC(=O)C2c3ccccc3C(=O)N(C)C2c2cn(C)c3ccccc23)CC1 (centres undefined)	0.085	-1
CCC(C)(C)c1cc2cc(NC(=O)C(C)(C)C)ccc2[nH]1	-0.41	nt
COC(=O)C1C2CC3c4[nH]c5cc(OC)ccc5c4CCN3CC2CC(OC(=O)c2cc(OC)c(OC)c(OC)c2)C1OC (centres undefined)	3.4	nt
O=C1Nc2ccccc2S/C1=C/Nc1ccccc1Cl	-0.81	-0.35
COc1nc(Nc2ccc3c(c2)OCO3)nc(OC)n1	0.26	0.55
COc1ccc(/C=C2N=C(/C=C/c3ccc(Cl)cc3Cl)OC\2=O)c(OC)c1OC	-0.43	nt
O=C(CN1N=C(c2ccccc2)CCC1=O)NC1CC1	1.9	0.65
CCOP(=S)(OCC)N1CCOCC1	-0.35	0.7
COc1ccc(CN2CCN(C3=NS(=O)(=O)C(c4ccc(Cl)cc4)=C3C)CC2)c(OC)c1OC	-1.5	1.7
CC(=O)Nc1c2c(nn1-c1ccc(Cl)cc1)CS(=O)(=O)C2	0.49	-0.7
CCOC(=O)C(C)Oc1ccc2c3c(c(=O)oc2c1)CCCC3 (centres undefined)	15	nt
CCOC(=O)c1cncc(C#Cc2ccccc2)c1	-0.22	nt
Cc1c(C)c(C)c(C(=O)Cc2ccccc2)c(C)c1C	-0.77	nt
N/C(=N\O)c1c(Cl)cccc1Cl	nt	-0.8
O=C(OCC(F)(F)C(F)F)c1ccc2ccccc2c1	9.2	0.05
CC1CC(C)CN(C(=O)CSc2nc3cc(S(=O)(=O)N(C)C)ccc3o2)C1 (centres undefined)	nt	0.25
Cc1nn(CC(C)C)c(Cl)c1CNCCC(=O)N1CCCC1	nt	-0.5
O=C(CN1CCC(N2CCCCC2)CC1)NC12CC3CC(CC(C3)C1)C2	nt	0
CC(N)c1ccc(-c2ccccc2)cc1 (centres undefined)	nt	-2.5
Cc1ccc(NC(=O)CN2CCSC2=O)cc1	nt	0.55
C/C(=N\O)c1ccc2c(c1)Cc1ccccc1-2	0.08	1.8
O=C(Cn1nc(-c2ccccc2)c2ccccc2c1=O)N1CCOCC1	0.32	-0.75
Cc1cc(Cc2ccc(Cl)cc2)c(=O)[nH]n1	-0.34	0.3

More compounds follow:
SMILES	Ba CapD inh	AID504770
CN(C)c1cc(Nc2ccc(Cl)cc2)c2c3c(onc13)-c1ccccc1C2=O	nt	-0.45
C#CCN1CCC2=C(C1)c1c(O)cc(C(C)CCCc3ccc(F)cc3)cc1OC2(C)C (centres undefined)	-0.58	nt
Cc1ccc(S(=O)(=O)Oc2ccc3ccccc3c2/C=N/NC(=O)C(=O)N/N=C/c2c(OS(=O)(=O)c3ccc(C)cc3)ccc3ccccc23)cc1	-0.15	nt
O=C(O)C1OC(c2cccc(Cl)c2)=NC12CC2 (centres undefined)	-0.55	0.2
CC(=O)NCCC(=O)N1C(=NCCc2ccccc2)SCC1(C)C	nt	0.9
CC(=O)Oc1ccc2c(c1)CCC1C2C(O)CC2(C)C(=O)CCC12 (centres undefined)	-0.2	1.4
O=C(NCc1ccccn1)C1CCC(CNS(=O)(=O)c2ccccc2)CC1 (centres undefined)	-0.52	-0.6
Cc1ccc(CSc2nc3ccccc3c3nc(CCn4nc(C)cc4C)nn23)cc1	81	0.2
O=C(Nc1ccnn1Cc1ccco1)c1cccnc1Sc1ccccc1	nt	-0.4
COc1cc(/C=C2/N=C(SCC(=O)c3ccccc3)N(c3ccccc3)C2=O)ccc1O	i	0.15
CCOC(=O)C1=C(C)N=c2s/c(=C/c3cn(C)c4ccccc34)c(=O)n2C1c1ccc(OC)c(OC)c1 (centres undefined)	-0.065	nt
COc1ccc(CN(C)CC(=O)NC(C)c2ccccc2)c(OC)c1 (centres undefined)	nt	2
COC(=O)CCc1c(C)nn(-c2ccc(C(=O)NC3CCOC3=O)cc2)c1C (centres undefined)	-0.72	nt
CCC(C)C(NCc1c(O)ccc2c(C)cc(=O)oc12)C(=O)O (centres undefined)	38	1.7
Cn1c(O)c(/C=N/Nc2nc3ccccc3s2)c(=O)n(C)c1=O	nt	0.95
O=C(CC1SC(=Nc2ccccc2)NC1=O)NC1CC1 (centres undefined)	nt	-0.1
CCc1ccc2[nH]c3nc(C)cc(C)c3c(=O)c2c1	0.1	-0.4
CCOc1ccc(NC(=O)NCc2cccn2C)cc1	-1.2	-0.6
Cc1cccc(-c2noc(-c3ccc(F)cc3Cl)n2)c1	-1.3	2
O=C(O)c1cnc(NCc2ccccc2)s1	0.58	-0.1
C=CCn1c(=O)c2ccccc2n2nnc(C(=O)OCC)c12	0.005	-1
CC1=Nc2cc(C(=O)NCCc3ccccc3)ccc2Sc2ccccc21	-0.35	0.95
C#CCOC(=O)Nc1cnc(N(C)C)c(C(F)(F)F)c1	25	0.05
CC(C(=O)NCC(=O)Nc1ccc2ccccc2c1)c1ccc(Cl)cc1 (centres undefined)	-0.075	nt
COC(=O)c1cc(=O)nc(NC(=O)Nc2c(-c3c(Cl)cccc3Cl)noc2C)s1	-2.2	0.05

Random excerpt: 2 entries already listed
SMILES	Ba CapD inh	AID504770
Cc1ccc(CSc2nc3ccccc3c3nc(CCn4nc(C)cc4C)nn23)cc1	81	0.2
CCOC(=O)c1cncc(C#Cc2ccccc2)c1	-0.22	nt

(listing goes on)
SMILES	Ba CapD inh	AID504770
Cc1nnc(SCC(=O)c2c(C)[nH]c3ccccc23)s1	-0.14	-0.35
Cc1cc(O)cc2oc(C(F)(F)F)c(-c3cnn(-c4ccccc4)c3)c(=O)c12	-0.11	-0.2
Cc1cccc(OCCSC(N)=S)c1	0.055	-0.95
O=S(=O)(Nc1nc2ccccc2nc1NCc1ccco1)c1ccc(F)cc1	nt	-1.1
O=C(CN1CCCCC1)Nc1ccc(F)c(Cl)c1	0.45	0.3
Cc1nn(-c2ccccc2)c2sc(-c3nc(=S)[nH][nH]3)cc12	nt	0.45
O=C(CSc1cccc[n+]1[O-])N1CCCc2ccccc21	-1.2	-0.9
COc1cc(NC(=O)Cc2ncc(C(F)(F)F)cc2Cl)cc(OC)c1	-0.61	nt
COc1ccc(Nc2c(C#N)c(C)nn2-c2ccccc2)cc1	2.1	-0.05
c1ccc(COc2c3c(nc4ccccc24)CCCC3)cc1	-0.14	-0.55
O=C(Nc1ccc(Sc2ccccc2Cl)cc1)C(Cl)(Cl)Cl	-1	nt
COc1cc(-c2nc(C=Nc3cc(Cl)ccc3Cl)c(O)o2)cc(OC)c1OC	0.065	nt
O=C(O)c1ccc(NS(=O)(=O)/C=C/c2ccccc2)cc1	-0.3	-0.7
CC(C)(C)C(=O)Nc1nc(NC(=O)C(C)(C)C)nc(-c2ccccc2Cl)n1	0.52	2.2
O=C(Oc1ccc(/C=N/n2cnnc2)cc1)c1ccco1	nt	-0.15
COc1ccccc1CN(C)C(=O)c1ccc2nc[nH]c2c1	nt	0
O=C(CC1SC(=Nc2ccc(O)cc2)NC1=O)Nc1ccccc1 (centres undefined)	-0.2	-0.65
Cc1cc(Nc2cc(C(F)(F)F)nc3c(Cl)cccc23)on1	0.84	0.9
O=C1CC2(CCCc3ccccc32)C(=O)N1CN1CCCCC1 (centres undefined)	-0.43	-0.85
O=C(CN1CCC(c2nc(-c3ccncc3)n[nH]2)CC1)N1CCN(c2ccccc2F)CC1	nt	0.05
COc1ccc(Sc2cnc3ccccc3n2)cc1	-1.1	-0.8
Cn1cc(S(=O)(=O)CC(=O)N2CCOCC2)c2ccccc21	-0.4	-0.25
O=C(CSc1nc(=O)n2ccccc2n1)Nc1ccccc1	nt	0.65
Cc1ccc(-c2nn(CCC#N)cc2C#N)cc1	-0.49	2.3
S=c1[nH]nc(CN2CCCC2)n1-c1ccccc1	nt	0.9

(cont.)
SMILES	Ba CapD inh	AID504770
CC(=O)Nc1ccc(C(C#N)c2ccccc2)cc1 (centres undefined)	-0.035	-3.8
CCn1c2ccccc2c2cc(CN3CCC(NC(=O)OCc4cccc(C(F)(F)F)c4)C3)ccc21 (centres undefined)	25	nt
O=C(CNS(=O)(=O)c1ccccc1)NCC1CCCO1 (centres undefined)	nt	-0.95
CC(C)(C)NC(=O)Nc1ccc(S(=O)(=O)N2CCCC2)cc1	nt	0.25
Cc1cccc(N2CCN(C(=O)c3cccc(N4CCCC4=O)c3)C(C)C2)c1 (centres undefined)	-0.14	-0.6
O=CN1CCN(S(=O)(=O)c2ccc3c(c2)C(=O)c2cc(S(=O)(=O)N4CCN(C=O)CC4)ccc2-3)CC1	-0.095	nt
COc1ccc(NC(=S)NN)cc1Cl	0.15	1.1
O=C(NCCc1ccccc1)c1cc2c(ccc3ccccc32)o1	0.075	0.05
CC(O)c1nc2ccccc2n1C(F)F (centres undefined)	nt	-0.3
O=C(COc1ccc2ccccc2c1)NN=C(c1ccccc1)c1ccccc1	0.02	nt
COC(CNC(=O)c1c[nH]c2ccc(S(=O)(=O)N3CCOCC3)cc2c1=O)OC	7.1	0.5
Cc1cc(Nc2ccccc2)n(C(C)(C)C)n1	0.3	1.4
O=C(NNC(=O)c1cccs1)OCCc1ccccc1F	-0.42	nt
CCOC(=O)/C(C)=N/Nc1cc(C)cc(C)c1	-1.7	-0.35
CCOC(=O)CC(=O)N/N=C/c1cccc2c1OCO2	36	nt
COc1ccc(NC(=O)CCC(=O)O)cc1OC	0.8	0
COc1ccc(C)cc1NC(=O)c1cc2c(s1)CCC2	-1.1	-1.3
Cc1nc(C(F)(F)F)ccc1NC(=O)NCCNc1nccc(C(F)(F)F)n1	0.45	nt
COC(=O)CN1C(=O)c2ccccc2S1(=O)=O	-0.64	nt
O=C(/C=N/Nc1nc2ccccc2o1)c1ccccc1	nt	-1.1
COc1ccc(CCNC(=O)c2ccc(Cl)c(Cl)c2)cc1OC	0.11	nt
CSc1nnc2c(n1)OC(c1ccccc1F)Nc1ccccc1-2 (centres undefined)	-0.11	nt
CC(=O)Oc1cccc(N2C(=O)C3C4C=CC(CC4)C3C2=O)c1 (centres undefined)	-0.02	nt
CN1CCc2c(c3ccccc3n2Cc2ccccc2)C1	-0.72&0.4&-0.71	-0.2&-0.25
O=C1NCCCC1C(=O)NCCc1c[nH]c2ccc(OCc3ccccc3)cc12 (centres undefined)	0.04	-0.35

Profiles from above. Screens in order: Ba CapD inh, AID504770
Listed for O=C(CNS(=O)(=O)c1ccccc1)NCC1CCCO1 (centres undefined) : nt, -0.95
Listed for CN1CCc2c(c3ccccc3n2Cc2ccccc2)C1 : -0.72&0.4&-0.71, -0.2&-0.25
Listed for CC(O)c1nc2ccccc2n1C(F)F (centres undefined) : nt, -0.3
Listed for CCOC(=O)CC(=O)N/N=C/c1cccc2c1OCO2 : 36, nt

Additional entries:
SMILES	Ba CapD inh	AID504770
COc1cccc(Cc2nnc(-c3ccc(-c4cccs4)s3)o2)c1	80	0.2
Cc1ccc2nc(-c3cccc(-c4nc5ccc(C)cc5o4)c3)oc2c1	1.4	0.5
N=C1/C(=C(/O)c2ccccc2)C(c2ccccc2)C2=C(CCCC2=O)N1c1ccc([N+](=O)[O-])cc1 (centres undefined)	0.27	nt
CCOC(=O)N1CCN(CCC(=O)Nc2cc(OC)cc(OC)c2)CC1	0.08	0.05
Cc1cccc(C(=O)NCCSc2c[nH]c3ccccc23)c1	0.15	-0.6
CCOC(=O)c1cnc2c(ccc3ccccc32)c1Nc1cccc(C(C)=O)c1	-0.03	nt
Cc1cc(C)c2ccc(NC(=O)c3ccc(C(F)(F)F)cc3)nc2n1	0.67	2.8
c1ccc2c(CCNC3CCNCC3)c[nH]c2c1	nt	-0.1
C/C(=N\NC(=O)c1ccccc1)c1ccccc1	0.24	0.7
Cc1ccc(C)c(NC(=S)N(Cc2ccco2)C(C)c2ccco2)c1 (centres undefined)	0.47	-1.4
c1ccc(-c2nnc(CSc3nnc(C4CCCCC4)o3)o2)cc1	nt	-0.4
Cc1ccc(-n2nc(C)c(C3(O)C(=O)N(CCC(C)C)c4ccccc43)c2N)cc1 (centres undefined)	0.01	-0.15
COc1cccc(NCc2nnc(SCc3nnc(-c4cc(C)oc4C)o3)n2C2CCCCC2)c1	nt	0
COc1ccc(C(=O)Cn2c3ccccc3n3nc(C)c(=O)nc23)cc1	0.025	nt
COC(=O)c1cc2sccc2n1Cc1ccc(C)cc1	0.43	1.5
CC1(C)CC(=O)C(C=NCCN2CCOCC2)=C(O)C1	0.2	1.1
CCOC(=O)C1=C(O)/C(=C/c2ccc(O)cc2)SC1=Nc1ccc(Cl)cc1	-0.25	nt
CC1=CCC(Cc2nc3ccccc3o2)C1(C)C (centres undefined)	0.14	-0.65
Cc1c(-c2ccccc2)sc(N)c1C#N	0.25	0.45
Cc1nnc(N/N=C/C2CC=CCC2)[nH]c1=O (centres undefined)	0.07	-0.7
CC(NS(=O)(=O)c1ccccc1)C(=O)NCc1ccc2c(c1)OCO2 (centres undefined)	nt	0.1
Cc1nc(-c2c(C(=O)NNC(=O)OCC(C)N(Cc3ccccc3)Cc3ccccc3)noc2C)cs1 (centres undefined)	-0.54	nt
Cc1cccc(C(=O)Nc2ccc(S(=O)(=O)Nc3nc(C)cc(C)n3)cc2)c1	0.025	nt
Cc1[nH]c2ccccc2c1C(=O)CN1CCCC1	nt	-0.1

In a second layout: 4 of the compounds above.
mol: Cc1c(-c2ccccc2)sc(N)c1C#N
  Ba CapD inh: 0.25 | AID504770: 0.45
mol: Cc1nnc(N/N=C/C2CC=CCC2)[nH]c1=O (centres undefined)
  Ba CapD inh: 0.07 | AID504770: -0.7
mol: CC(NS(=O)(=O)c1ccccc1)C(=O)NCc1ccc2c(c1)OCO2 (centres undefined)
  Ba CapD inh: nt | AID504770: 0.1
mol: Cc1nc(-c2c(C(=O)NNC(=O)OCC(C)N(Cc3ccccc3)Cc3ccccc3)noc2C)cs1 (centres undefined)
  Ba CapD inh: -0.54 | AID504770: nt
